# miR-21 FLuc: qHTS Assay for Modulators of miRNAs and/orActivators of miR-21; Potency, µM (titrated, usually from 38.3 µM), for the others: at the top dose reporter change, positive = more light; AID 2288, 2010; 340,000 tested, under 10 active; HeLa miR-21 FLuc reporter, luciferase, 48 h; active = well fitted rising curve with a large enough effect; inconclusive = small, poorly fitted or top-dose-only effect; inactive = no such curve, though single readings can be large or run the other way;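 note: % of control where 0% means no effect; miR-21 action dims this reporter so a rising signal means less miR-21 action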
#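 HeLa cells stably expressing CMV-driven firefly luciferase with a downstream miR-21 binding sequence, endogenously expressing miR-21, were treated with titrations (up to about 40uM final) for 48 hours at 37 degree Celsius. Luciferase luminescence was read after lysis.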
# * marks the source's active call; other numbers are inactive results; ? = inconclusive.
miR-21 FLuc | Molecule
-2% | CCOC(=O)c1cnc2nc(NCc3ccc(OCC)cc3)[nH]n2c1=O
-3% | CCn1cc(C(=O)NCc2ccccc2)c(=O)c2cc(S(=O)(=O)N3CCc4ccccc4C3)ccc21
-1% | CCOC(=O)Cn1c(=O)n(C2CCCCC2)c2nc(-c3cccc(C)c3)nc(C(N)=O)c21
-6% | CCOc1ccc(CNC(=O)c2ccc3nc(CC)c(CC)nc3c2)cc1
9% | Cc1ccc(C)c(NC(=O)c2cc(S(=O)(=O)NCCC3=CCCCC3)ccc2F)c1
-3% | O=C(Cc1ccc(-c2ccccc2)cc1)NCCS(=O)(=O)N1CCN(c2cccc(Cl)c2)CC1
? | CCCOc1ccc(CNC(=O)Cn2cc3c(n2)-c2c(oc(C(=O)N4CCOCC4)c2C)CC3)cc1
? | CCCN(C(=O)c1cn(CC(C)C)c(=O)c2cc(OC)c(OC)cc12)c1cccc(C)c1
-9% | COc1ccc(OC(=O)c2nc(SCc3ccccc3C)ncc2Cl)cc1
-2% | O=C(Cn1c(=O)n(Cc2ccc3c(c2)OCO3)c(=O)c2oc3ccccc3c21)Nc1ccc(F)cc1
-2% | CCOC(=O)CSc1nc2sc3c(c2c(=O)n1CC)CCCC3
-6% | COc1ccccc1CNC(=O)CN(C)c1nn2c(=O)cc(C)nc2s1
0% | Cc1c(C2=CCN(S(=O)(=O)c3ccc(Cl)cc3)CC2)c2ccccc2n1CC(=O)N1CCCC1
5% | Cc1ccc(N2CC(NC(=O)c3ccc(S(=O)(=O)N4CCCC4)cc3)CC2=O)cc1C (stereo not drawn)
2% | Cc1ccc(NC(=O)C(C)n2nnc3sc4c(c3c2=O)CCCC4)cc1Cl (stereo not drawn)
-4% | CCOC(=O)c1cccc(NC(=O)CCSCCc2ccccn2)c1
5% | Cc1ccc(NC(=O)CSc2nnc3[nH]c(=O)cc(-c4ccccc4)n23)cc1Cl
12% | O=S(=O)(NCc1nc2cccnc2n1Cc1ccccc1)c1ccc2c(c1)CCCC2
-23% | CCN(C(=O)c1nn(-c2ccc(OC)c(Cl)c2)c(=O)c2c1c1ccccc1n2C)c1cc(OC)ccc1OC
-27% | Cc1cccc(C)c1NC(=O)Cn1c(=O)n(CCC(=O)NCc2ccccc2Cl)c(=O)c2sccc21
0% | Cc1ccc(-n2ncc3c(NCCCN(C)C)ncnc32)cc1Cl
-2% | CCCCCOc1ccccc1Cn1c(=O)oc2ccc(C)cc21
-8% | Cc1ccccc1OCCn1c(CCNC(=O)C(C)(C)C)nc2ccccc21
0% | CCc1nc2nc(C)cc(Nc3ccc(Br)cc3F)n2n1
? | CCOc1ccccc1NC(=O)C(Cc1ccccc1)NS(=O)(=O)c1ccc(Br)s1 (stereo not drawn)
-4% | O=C(/C=C/c1ccccc1)N1CCN(Cc2cc(=O)n3nc(-c4ccccc4Cl)sc3n2)CC1
1% | Cc1ccc(S(=O)(=O)c2nnn3c2nc(NC(C)C)c2cc(Cl)ccc23)cc1C
0% | CC(C)OCCCNC(=O)CCCN1C(=O)CCn2nc(-c3cccn3C)cc21
-18% | CS(=O)(=O)N1CCc2cc(C(=O)Nc3cccc(F)c3)ccc21
21% | Cc1ccc(-c2cc(C(=O)N3CCN(S(=O)(=O)c4ccc(Br)s4)CC3)[nH]n2)c(C)c1
-2% | COc1ccccc1CNC(=O)CS(=O)(=O)Cc1nc(-c2ccccc2C)oc1C
1% | Cc1ccccc1NC(=O)c1cnc2sc(N3CCCC3)nn2c1=O
26% | COc1cccc(NC(=O)CCN2CCN(c3ccccc3)CC2)c1
-42% | Brc1ccc2nc(SCCOc3ccccc3)[nH]c2c1
-4% | Cc1ccccc1C(=O)Nc1nnc(S(=O)(=O)N2c3ccccc3CC2C)s1 (stereo not drawn)
-12% | Cc1c(C(=O)NCc2ccc(Cl)cc2)sc2nc3n(c(=O)c12)CCC3
2% | COCCCNC(=O)c1cc(-c2cccnc2)nc2ccc(S(=O)(=O)N3CCC(C)CC3)cc12
-2% | CCc1ccc(S(=O)(=O)c2nnn3c2nc(Nc2ccc(C)c(Cl)c2)c2sccc23)cc1
-5% | Cc1ccc(NC(=O)CN2C(=O)CC(C)Sc3ccccc32)c(C)c1 (stereo not drawn)
-10% | CC(=O)c1ccc(Nc2nc3ccccc3nc2-n2nc(C)cc2C)cc1

# Reformatted: results already given
SMILES,miR-21 FLuc
Cc1c(C(=O)NCc2ccc(Cl)cc2)sc2nc3n(c(=O)c12)CCC3,-12%
COCCCNC(=O)c1cc(-c2cccnc2)nc2ccc(S(=O)(=O)N3CCC(C)CC3)cc12,2%
CCc1ccc(S(=O)(=O)c2nnn3c2nc(Nc2ccc(C)c(Cl)c2)c2sccc23)cc1,-2%
Cc1ccc(NC(=O)CN2C(=O)CC(C)Sc3ccccc32)c(C)c1 (stereo not drawn),-5%

# Molecules listed so far that have an NH in an aromatic ring, in the order listed:
miR-21 FLuc | Molecule
-2% | CCOC(=O)c1cnc2nc(NCc3ccc(OCC)cc3)[nH]n2c1=O
5% | Cc1ccc(NC(=O)CSc2nnc3[nH]c(=O)cc(-c4ccccc4)n23)cc1Cl
21% | Cc1ccc(-c2cc(C(=O)N3CCN(S(=O)(=O)c4ccc(Br)s4)CC3)[nH]n2)c(C)c1
-42% | Brc1ccc2nc(SCCOc3ccccc3)[nH]c2c1

# Next section
miR-21 FLuc | Molecule
7% | Cc1cccn2c(=O)c3cc(C(=O)N(Cc4ccccc4)C(C)C)sc3nc12
1% | CCN(CC)c1ccc(NC(=O)Cn2c(C)c3cnn(-c4ccccc4)c(=O)c3c2C)c(C)c1
9% | Cc1cc(F)ccc1NC(=O)C1CCN(C(=O)c2cnn(-c3ccccc3)c2-n2cccc2)CC1
-4% | COc1cc(OC)c2c(C)c(CC(=O)NCc3ccccc3OC)c(=O)oc2c1
-7% | COc1ccccc1Oc1nc2c(c(=O)n(C)c(=O)n2C)n1Cc1cccc(Br)c1
-3% | Cc1cc(C)cc(OCc2ccc(C(=O)Nc3ccccc3F)o2)c1
21% | Cc1ccc(Cl)cc1N1CCN(C(=O)c2ccc3c(c2)N(Cc2ccc(F)cc2)CCS3)CC1
0% | COc1cc(Nc2nc3c(S(=O)(=O)c4ccccc4)nnn3c3ccc(Cl)cc23)cc(OC)c1

# A second format for 4 compounds above.
> COc1cc(OC)c2c(C)c(CC(=O)NCc3ccccc3OC)c(=O)oc2c1
  miR-21 FLuc: -4%

> COc1ccccc1Oc1nc2c(c(=O)n(C)c(=O)n2C)n1Cc1cccc(Br)c1
  miR-21 FLuc: -7%

> Cc1ccc(Cl)cc1N1CCN(C(=O)c2ccc3c(c2)N(Cc2ccc(F)cc2)CCS3)CC1
  miR-21 FLuc: 21%

> Cc1cc(C)cc(OCc2ccc(C(=O)Nc3ccccc3F)o2)c1
  miR-21 FLuc: -3%

# The list goes on.
miR-21 FLuc | Molecule
-39% | CCNC(=O)c1ccc2c(c1)nc1n2CCCCC1
2% | CC(=O)N1CCCc2cc(S(=O)(=O)N3CCC(C(=O)NCc4ccc(C)cc4)CC3)ccc21
-1% | CCCOc1cccc(C2c3c(oc4ccccc4c3=O)C(=O)N2c2nncs2)c1 (stereo not drawn)
25% | CC(=O)N1CCCC1c1nc2ccccc2n1Cc1cc(C)ccc1C (stereo not drawn)
6% | Cc1cccc(-c2noc(CN(C(=O)COc3ccc(Br)cc3C)C(C)C)n2)c1
-3% | COc1cccc(N2CC(NC(=O)CCCc3ccccc3)CC2=O)c1 (stereo not drawn)
-6% | Cc1c(/C=C(\C#N)C(=O)Nc2cccc(Cl)c2)c2ccccc2n1Cc1ccccc1Cl
2% | COc1ccc(S(=O)(=O)N2CCN(c3ccc(F)cc3)CC2)cc1-c1noc(C)n1
-1% | CCOc1ccc(CNC(=O)C2Cc3ccccc3N2C(=O)CC)cc1 (stereo not drawn)
0% | O=C1c2oc3ccccc3c(=O)c2C(c2ccc(Br)cc2)N1c1ccccn1 (stereo not drawn)
3% | Cc1ccc(Cl)cc1-n1c(SCC(=O)NCc2ccccc2)nc2n[nH]c(C)c2c1=N
-7% | O=C(NCc1cccn1Cc1ccccc1)Nc1ccc(Br)cc1F
0% | CCc1ccc(C2CC(=O)c3c([nH]c(C(=O)OC4CCCC4)c3C)C2)cc1 (stereo not drawn)
1% | CCOc1ccc(Nc2nc3c(S(=O)(=O)c4ccc(CC)cc4)nnn3c3ccc(Cl)cc23)cc1
2% | Cc1ccc(NC(=O)CCCn2c(=O)c3cccn3c3cccnc32)c(C)c1
-2% | Cc1ccc(S(=O)(=O)c2cn(Cc3ccccc3)c3cc(N4CCCCC4)c(F)cc3c2=O)cc1
0% | CC(C)(C)C(=O)Cn1c(=O)n(CCCCCC(=O)NCc2ccc3c(c2)OCO3)c(=O)c2sccc21
-5% | O=C(CS(=O)(=O)c1cccc2nsnc12)Nc1ccccc1
17% | COc1ccccc1CNC(=O)Cn1nc(C)n2cccc2c1=O
8% | O=C(NCCc1ccc(Cl)cc1)c1nc(-c2cccc(F)c2)n2c1CCCCC2
2% | COc1cc(C(=O)Nc2nc3c(s2)Cc2c(Br)ccc(OC)c2-3)cc(OC)c1OC
-1% | CC(C)c1nn2c(=O)cc(COC(=O)CNC(=O)c3ccccc3Cl)nc2s1
25% | COc1cccc(NC(=O)C2CCN(S(=O)(=O)c3c(C)noc3/C=C/c3cccs3)CC2)c1
-3% | CCOc1ccc(CN(C(=O)c2nc(SC)ncc2Cl)C2CCS(=O)(=O)C2)cc1 (stereo not drawn)
9% | COc1ccc(NS(=O)(=O)c2ccc3c(c2)NC(=O)CCS3)c(OC)c1
6% | Cc1cccc(NC(=O)CSc2nc(=O)n(Cc3cccnc3)c3c2CCC3)c1C
3% | Cc1cccc(C)c1NC(=O)Cn1c(=O)n(Cc2ccc3c(c2)OCO3)c(=O)c2oc3ccccc3c21
-55% | Cc1ccc(NC(=O)Nc2nnc(N(CC(C)C)CC(C)C)s2)cc1Cl
4% | Cc1ccc2c(CN3CCN(Cc4ccccc4Cl)CC3)cc(=O)oc2c1
-2% | CC(=O)Nc1ccc(C(=O)CSc2nnc(-c3ccccc3)n2-c2ccccc2)cc1
3% | COC(=O)c1nc2n(n1)C(c1cc(OC)ccc1OC)C(C(=O)Nc1ccc(C)cc1C)=C(C)N2 (stereo not drawn)
-1% | Cc1ccc(CCNC(=O)c2ccc3c(c2)nc2n3CCC(C)C2)cc1 (stereo not drawn)
4% | CCOc1ccccc1NC(=O)Cn1c(=O)n(Cc2ccccc2)c(=O)c2c1c1cc(C)ccc1n2C
0% | O=C(Nc1cccc(Cl)c1)N1CCSc2ccccc21
1% | COc1ccccc1-c1nn(CCC(=O)Nc2ccc(C)cc2)c2nc(C)cc(C)c12
3% | CCOCCCNc1nc2ccccc2n2c(CC)nnc12
16% | COc1ccccc1NC(=O)CSc1ncc2c(n1)-c1cc(Cl)ccc1N(C)S2(=O)=O
15% | Cc1cccc(NS(=O)(=O)c2ccc(Cl)c(C(=O)Nc3ccccc3C)c2)c1
-11% | COc1ccc(C(=O)Oc2cc(-c3ccc(OC)c(OC)c3)cc(=O)c3c(C)oc(C)c23)cc1
-7% | Cc1cccc(N(C)S(=O)(=O)c2nnc(NC(=O)c3cccs3)s2)c1
-24% | CCCn1c2ccccc2c2cnn(CC(=O)NCCc3ccc(S(N)(=O)=O)cc3)c(=O)c21
-5% | COc1cc(NS(=O)(=O)c2c(C)nc3sc(C)c(C)n3c2=O)cc(OC)c1
1% | O=C(CSc1cn(CC(=O)N2CCCCC2)c2ccccc12)Nc1ccccc1
15% | COc1ccc(CNC(=O)CN2C(=O)c3cccnc3Oc3ccc(C)cc32)cc1
? | CCOC(=O)C1CCN(S(=O)(=O)c2c(Cl)ccc3nonc23)CC1
-15% | Cc1cc(NC(=O)c2cccc(Cl)c2)ccc1-c1cc2ccccc2oc1=O
-16% | Cc1ccc(NC(=O)C2CCN(c3nnc(C)c4c(C)n(-c5ccccc5)nc34)CC2)c(Cl)c1
-16% | COc1ccc(N2CCN(C(=O)c3ccc4c(c3)CCN4S(C)(=O)=O)CC2)cc1
-45% | CCOc1ccccc1-n1nnc(-c2nc(-c3ccccc3)no2)c1N
-8% | Cc1cc([N+](=O)[O-])ccc1NC(=O)CSc1nccn1C
-8% | COc1ccc(-c2noc(-c3ccc(NCc4ccco4)c([N+](=O)[O-])c3)n2)cc1
1% | COCCCNC(=O)N1[C@H](c2cccs2)[C@@H](C)C(=O)[C@@H](C)[C@@H]1c1cccs1
-3% | CCOc1cc2[nH]c(=O)n(CCC(=O)N3CCN(c4ccccc4)CC3)c(=O)c2cc1OCC
-10% | COc1ccc(-c2nc(SCC(=O)Nc3c(C)cc(C)cc3C)n[nH]2)cc1
0% | O=C(C1CCCCC1)N(Cc1cccnc1)c1nc2c(F)cc(F)cc2s1
-1% | Cc1ccc(-c2c3c(=O)n(C)c(=O)n(C)c3c3cnc4ccccc4n23)cc1

# (continued)
miR-21 FLuc | Molecule
16% | CC(=O)Nc1nc2n(n1)C(c1ccc(F)cc1)C=C(c1ccc(Cl)cc1)N2 (stereo not drawn)
5% | O=C(NCCc1ccccc1)c1ccc(Cn2c(SCc3cccc(F)c3)nc3cccnc32)cc1
30% | Cc1ccc(C(=O)Nc2ccc(Br)cc2)cc1S(=O)(=O)NCc1ccccc1
-22% | O=S(=O)(NCc1csc(-c2ccccc2)n1)c1ccccc1
-9% | Cc1ccc(C(=O)Nc2ccc(C(=O)O)cc2)cc1S(=O)(=O)N1CCC(C)CC1
7% | CCOC(=O)c1c(S(=O)(=O)N2CCCC(C(=O)Nc3cccc(C#N)c3)C2)c(C)n(C)c1C (stereo not drawn)
2% | COc1cccc(Cn2c(=O)cc(C)c3c(C)nn(C)c32)c1
-6% | O=S(=O)(c1ccc(Cl)cc1)c1nnn2c1nc(NCc1ccccc1)c1sccc12
-4% | COc1ccc(F)cc1S(=O)(=O)NCC(c1ccco1)S(=O)(=O)c1cccs1 (stereo not drawn)
22% | COc1cc(OC)c(NC(=O)C(C)n2nc(-c3ccc(C)cc3)c3c(c2=O)CCCC3)cc1Cl (stereo not drawn)

# Not all compounds are listed; the hit share may differ from the screen's.
